VDR inhibitor – blocks the human vitamin D receptor; P11473; VDR-SRC2-3 peptide fluorescence polarization, 2 h; Potency, µM, without a hit: max response, negative = inhibition, usual class: inhibitors; hit rate 0.93% among 400,000; active = well fitted inhibition curve with a large enough effect; inconclusive = small, poorly fitted or top-dose-only effect, or another doubt; inactive = no such curve, though single readings can be large or run the other way; also: series mostly up to about 120 µM
Target sequence (P11473 whole entry, looked up): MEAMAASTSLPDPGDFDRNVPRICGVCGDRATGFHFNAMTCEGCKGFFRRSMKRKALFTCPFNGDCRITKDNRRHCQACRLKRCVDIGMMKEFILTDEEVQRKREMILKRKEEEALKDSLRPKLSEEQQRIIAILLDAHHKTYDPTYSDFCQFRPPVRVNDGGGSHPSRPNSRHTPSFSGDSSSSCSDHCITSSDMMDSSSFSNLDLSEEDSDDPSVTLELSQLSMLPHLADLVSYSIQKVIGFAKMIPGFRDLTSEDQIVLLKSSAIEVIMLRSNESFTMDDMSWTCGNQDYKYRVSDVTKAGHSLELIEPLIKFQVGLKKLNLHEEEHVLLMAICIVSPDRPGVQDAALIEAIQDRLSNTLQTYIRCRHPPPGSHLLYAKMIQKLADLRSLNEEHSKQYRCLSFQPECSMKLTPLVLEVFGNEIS
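Fluorescence polarization assay measuring small-molecule disruption of VDR binding to the coregulator peptide SRC2-3. Compounds were pin-transferred (23 nl) into the reagent mix and incubated 2 h at room temperature before reading.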
Starred values were filed as active, the others as inactive; ? = inconclusive; & = joins results of further samples. % is scaled to controls: 0 for no effect and ±100 for the full control effect; potency is read from the fitted curve at half-maximal effect.

SMILES	VDR inhibitor
O=C(CSc1nc2ccccc2c(=O)n1-c1ccc(F)cc1)Nc1ccc(C(=O)O)cc1	-7.7%
O=C(COc1ccc2c(C(F)(F)F)cc(=O)oc2c1)Nc1ccc2c(c1)OCCO2	5.6%
O=C(C(Cc1ccccc1)N1C(=O)C2C3C=CC(C3)C2C1=O)N1CCCCCC1 (stereo not drawn)	-8.6%
CC(=O)Nc1ccc(S(=O)(=O)NC(C)(C#N)C2CC2)cc1 (stereo not drawn)	-5.1%
O=[N+]([O-])c1cccc(OCc2cn3cccnc3n2)c1	-3.2%
COc1cccc(NS(=O)(=O)c2ccc3c(c2)n(C)c(=O)n3C)c1	2.3%
O=C(O)c1cc(N2C(=O)C=CC2=O)cc(N2C(=O)C=CC2=O)c1	?
O=[N+]([O-])c1ccccc1S(=O)(=O)Nc1cccc(-c2ccc(N3CCOCC3)nn2)c1	-10.5%
O=C(NC1CCN(Cc2ccccc2)CC1)c1ccc(Cn2c(=O)c3ccccc3n(Cc3cccc(F)c3)c2=O)cc1	0.6%
O=C(Cn1c(=O)oc2ccccc21)Nc1ccc(S(=O)(=O)N2CCCCC2)cc1	10.0%
Cc1sc2ccccc2[n+]1CCC(C)S(=O)(=O)[O-] (stereo not drawn)	?
Cc1cc(C)cc(NC(=O)c2nnn(Cc3cccc(Br)c3)c2N)c1	-8.1%

Laid out differently: entries from further up.
| VDR inhibitor | Compound |
| --- | --- |
| 2.3% | COc1cccc(NS(=O)(=O)c2ccc3c(c2)n(C)c(=O)n3C)c1 |
| ? | O=C(O)c1cc(N2C(=O)C=CC2=O)cc(N2C(=O)C=CC2=O)c1 |

Next part:
SMILES	VDR inhibitor
CC(C(=O)O)n1c(-c2ccn[nH]2)n[nH]c1=S (stereo not drawn)	?
COc1ccc(OCc2cccc(C(=O)O)c2)cc1	-10.4%
Cc1ccnc(NC(=O)c2c(-c3ccccc3Cl)noc2C)c1	11.7%
CCNS(=O)(=O)c1c(C)cc(C)c(N(C)S(=O)(=O)c2ccccc2)c1C	-21.4%
Cc1c(N2C(=O)C(=O)/C(=C(/O)c3ccccc3)C2c2ccc(F)cc2)c(=O)n(-c2ccccc2)n1C (stereo not drawn)	?
Cc1cc[n+](CC(=O)Nc2nc3ccccc3s2)cc1	2.8%
COc1ccc(CCN2CCCC(CN(C)Cc3cccc(OC)c3)C2)cc1 (stereo not drawn)	-7.5%
O=C(COC(=O)c1ccccc1Cl)NC1CCCCCC1	-7.0%
Cc1ccc(OCC(=O)N2CC(C)OC(C)C2)c([N+](=O)[O-])n1 (stereo not drawn)	-25.1%
COc1ccc2ncccc2c1Cc1c(OC)ccc2ncccc12	13.4%
CC1=C(C(=O)Nc2ccccc2C)C2(CCCC2)C(C(N)=O)C(=O)N1 (stereo not drawn)	6.9%
O=C(CSc1nc2ccccc2n1Cc1ccccc1F)NCc1ccccc1	18.2%
COC(=O)CCCC1=CC2=CC(=O)C(C)(OC(=O)c3cccs3)C(=O)C2=CN1Cc1ccc2c(c1)OCO2 (stereo not drawn)	-5.1%
CCc1nc2ccccc2c(C(=O)Nc2ccc(F)cc2)c1C	?
CC(C)N(C)C1CCN(C(=O)Nc2ccc(Cl)cc2)CC1	-6.7%
CC(C)(C)Nc1oc(-c2ccccc2)nc1-c1cccc2ccccc12	9.4%
Cc1cc(C)n(C(=O)CNC(=O)c2ccc3c(c2)OCCO3)n1	10.3%
COc1ccccc1OCC(=O)N(Cc1nc(-c2ccccc2)no1)C1CCCCC1	-13.2%
CC(=O)Nc1cccc2c1Cc1ccccc1-2	-14.2%
COc1ccc(-c2[nH]ncc2-c2cnn(-c3ccccc3)c2)c(O)c1	13.7%
CC(C)(C)OC(=O)[C@H](Cc1ccccc1)NC(=O)c1nc[nH]c1C(=O)N1CCN(c2ccccc2)CC1	?
C=CCn1c(=O)[nH]c2cc(C(=O)N3CCN(c4cc(C)ccc4C)CC3)ccc2c1=O	19.8%
Brc1c(-c2ccc3c(c2)OCO3)nc2ncccn12	3.8%
O=S(=O)(c1ccccc1)c1nc(-c2cccs2)oc1SCc1ccccc1F	10.7%
CCOC(=O)N1CCC(c2[nH][nH]c(=O)c2C)CC1	5.8%
O=C(CNc1ccccc1)N/N=C/c1ccc2c(c1)OCO2	-20.8%
Cc1nnc(SCC(=O)NCC2CCCO2)n1-c1ccccc1 (stereo not drawn)	11.7%
N/C(=N\OC(=O)COc1ccc(Cl)cc1)c1ccc(Cl)cc1	5.3%
c1ccc2c(c1)CCNC2c1ccncc1 (stereo not drawn)	-3.9%
O=C(NCCCN1CCc2ccccc2C1)C1CCN(S(=O)(=O)N2CCC3(CC2)OCCO3)CC1	-7.1%
CCc1ccc(C(=O)c2cn(CC(=O)Nc3ccc4c(c3)OCCO4)c3ccc(F)cc3c2=O)cc1	-3.4%
COc1ccc(C(=O)N2CCNC(=O)C2CC(=O)Nc2ccc(C)c(C)c2)cc1 (stereo not drawn)	8.6%
NNC(=O)c1cccc(S(=O)(=O)Nc2cccc(C(F)(F)F)c2)c1	-21.8%
Fc1ccc(OCCCn2ccnc2)cc1	6.3%
CCCc1cc(=O)[nH]c(SCC(=O)c2cc(C)n(C(C)COC)c2C)n1 (stereo not drawn)	12.6%
S=c1[nH]nc(CSCc2ccccc2Cl)n1-c1ccccc1	1.1%
Cc1cc2ccccn2c1C(=O)c1ccc(Cl)c([N+](=O)[O-])c1	-2.5%
O=C(c1cccc(S(=O)(=O)NCc2ccccc2)c1)N1CCCCC1	-1.0%
COC(=O)c1ccc(C(=O)OC)c(NC(=O)/C=C/C(=O)O)c1	2.1%
CCc1ccc(N2CC(C(=O)OCC(=O)Nc3ccc(C#N)cc3)CC2=O)cc1 (stereo not drawn)	6.0%
CCC(=O)NC(=S)NNC(=O)c1ccc(O)cc1	-16.9%
COCCCNC(=O)CCC(=O)NNc1nc2ccccc2c2nc(C)nn12	2.3%&0.3%
COc1ccc(-n2nc3c(N4CCC(C(=O)NCCc5ccccc5C)CC4)nnc(C)c3c2C)cc1	-0.6%
CCc1ccccc1N(c1nc(-c2ccc(OC)c(OC)c2)no1)c1nc(-c2ccc(OC)c(OC)c2)no1	-4.6%
Cc1ccc(C(=O)N2CCCC2)cc1S(=O)(=O)Nc1ccccc1	-0.1%
CCC1(O)C(=O)OCc2c1cc1n(c2=O)Cc2cc3c(N)cccc3nc2-1 (stereo not drawn)	-11.4%
COC(=O)C1=C(C)N(Cc2ccccc2)C(=NCCc2c[nH]c3ccccc23)N[C@H]1c1cccc(C(F)(F)F)c1	3.0%
O=C(NCc1cccs1)c1ccc(CSc2nc3cccnc3n2Cc2ccccc2F)cc1	14.1%
CCOC(=O)C1CCN(CC(=O)Nc2c(C(=O)OC)n(C)c3cccc(C)c23)CC1	-13.6%
CCc1ccc(-n2c(N3CCN(c4ccc(F)cc4)CC3)nc3ccccc3c2=O)cc1	-8.8%
Cc1[nH]c(=O)[nH]c(=O)c1S(=O)(=O)Nc1cccc([N+](=O)[O-])c1C	7.8%
CC(C)[C@@H](CC(=O)N[C@@H]1CCCC[C@H]1C(=O)N[C@H](CC(=O)N[C@@H](CCC(=O)O)CC(=O)O)Cc1c[nH]c2ccccc12)NC(=O)C[C@H](Cc1ccccc1)NC(=O)[C@@H]1CCCC[C@H]1N	0.2%
S=C(Nc1ccccc1)Nc1cccc(Cl)c1Cl	-7.1%
CC1=C(C#N)C(NC(=O)C(C)(C)C)(C(F)(F)F)C(=O)N1 (stereo not drawn)	-4.5%
CCC(=O)Nc1nnc(-c2ccc(Cl)s2)o1	-4.7%
COc1cccc(OCc2nc3ccccc3[nH]2)c1	0.8%
COc1ccc(NC(=O)Cc2ccc(C)cc2)cc1S(=O)(=O)N1CCCCC1	17.6%
O=C(Nc1ccc(-c2cn3ccsc3n2)cc1)C1COc2ccccc2O1 (stereo not drawn)	-0.5%
Cc1ccc(Cl)cc1NC(=O)CN1C(=O)CCc2ccccc21	10.8%
O=C(CSc1ncn[nH]1)N1N=C(c2ccc(Cl)cc2)CC1c1ccco1 (stereo not drawn)	-28.9%

(further entries)
SMILES	VDR inhibitor
CSc1nc(Oc2ccc(=O)[nH]n2)nc(N(C)C)n1	6.7%
CCCCN1C(=S)SC(C)(C)C1/[N+]([O-])=C/c1ccc(S(=O)(=O)NC)cc1 (stereo not drawn)	-0.1%
Cc1noc2ncc(C(=O)c3cc(F)ccc3O)cc12	8.7%
CC(O)(Cc1ccccn1)Cc1ccccn1	21.1%
COC(=O)c1[nH]c2ccccc2c1NC(=O)C(C)N1CCN(C(=O)c2ccco2)CC1 (stereo not drawn)	-10.8%
O=C(CN1C(=O)NC2(CCCCCC2)C1=O)c1ccc(OC(F)F)cc1OC(F)F	?
CC1=C(C(=O)O)N2C(=O)C(NC(=O)c3ccc(F)cc3)C2SC1 (stereo not drawn)	-18.6%
N/C(=N\OC(=O)c1cccc2ccccc12)c1ccncc1	2.0%
Cc1cccc(N2CCN(C(=O)c3cccc(N4C(=O)C5C6C=CC(C6)C5C4=O)c3)CC2)c1C (stereo not drawn)	4.9%
Cc1ccc(N/C=C/C(=O)c2ccco2)c(O)c1	-15.3%
CC(=O)n1c2ccccc2c2c1c1ccccc1n2C	4.6%
O=C(c1ccc2ccccc2c1)C1CCCN(C(=O)CN2C(=O)CSC2=O)C1 (stereo not drawn)	-0.5%

Copied from above (4 entries):
SMILES	VDR inhibitor
Cc1noc2ncc(C(=O)c3cc(F)ccc3O)cc12	8.7%
CC(O)(Cc1ccccn1)Cc1ccccn1	21.1%
COC(=O)c1[nH]c2ccccc2c1NC(=O)C(C)N1CCN(C(=O)c2ccco2)CC1 (stereo not drawn)	-10.8%
O=C(CN1C(=O)NC2(CCCCCC2)C1=O)c1ccc(OC(F)F)cc1OC(F)F	?

The listing continues:
SMILES	VDR inhibitor
CCC(c1nnc(SCC(=O)N2CC3(C)CC2CC(C)(C)C3)o1)N(C)C (stereo not drawn)	?
COC(=O)c1sccc1NC(=O)c1c(-c2ccccc2)noc1C	-2.6%
CCc1ccc(NC(=O)CSc2cn(CC(=O)N3CCCC3)c3ccccc23)cc1	-4.2%
Cc1ccc(CSCCNC(=O)CN(c2cccc(C)c2C)S(=O)(=O)c2ccccc2)cc1	-22.5%
COc1ccc(Cl)cc1NS(=O)(=O)c1cccc(C(=O)NC2CCN(Cc3ccccc3)CC2)c1	5.9%
OCCCCCNc1ncnc2ccccc12	1.9%
Cc1cc(NC(=O)CNC(=O)C2CCCCC2)no1	6.2%
CCCOc1ccc(C(=O)N(Cc2ccc(N(C)C)cc2)CC2CCCO2)cc1 (stereo not drawn)	3.1%
COc1ccc(-c2cc(-c3ccccc3)n[nH]2)c(O)c1	12.6%
COc1ccccc1CNC(=O)C1CCCN(c2cnccn2)C1 (stereo not drawn)	-17.5%
Fc1ccccc1Nc1ncnc2c1nnn2Cc1ccccc1	2.0%
CC(=O)N1N=C(c2ccc(C)cc2)OC1c1ccc(C(C)C)cc1 (stereo not drawn)	4.9%
Cc1ccc(-n2nc3c(N4CCCC(C(=O)NCc5ccc(Cl)cc5)C4)nnc(C)c3c2C)cc1 (stereo not drawn)	-7.1%
C/C(=N/NC(=O)CNC(=O)c1cccs1)c1ccco1	1.0%
COCCn1nnnc1C(c1ccccc1OC)N1CCN(c2ccccc2F)CC1 (stereo not drawn)	9.6%
Cc1ccc(O)c(NC(=O)c2cccc(S(=O)(=O)N3CCCCC3)c2)c1	1.2%
Cc1ccc(S(=O)(=O)n2nc(C)c(S(=O)(=O)N3CCOCC3)c2C)cc1	-7.9%
Cc1cc(N2CCCC2)nc2ccccc12	6.2%
COc1ccc(C2C(C#N)=C(N)Oc3n[nH]c(C)c32)cc1CSc1ccccn1 (stereo not drawn)	-2.8%
Cc1ccc(C(=O)Nc2nc(-c3ccco3)c(-c3ccco3)s2)o1	?
Cc1cnc(C(=O)Nc2ccc(S(=O)(=O)NCC(C)C)cc2)cn1	10.5%
CCOc1ccccc1N1CCN(CC(=O)c2c(N)n(C)c(=O)n(C)c2=O)CC1	-15.1%
CCCCCCCCCCCCCCCCn1cc[n+](CC(C)=O)c1	-4.7%
Cc1cccc(C)c1N1CCN(c2nc(N(C)C)oc(=O)c2C#N)CC1	-4.0%
CCOC(=O)c1c(NC(=O)COC(=O)c2ccc(Cl)nc2)sc(C(=O)N(C)C)c1C	15.6%
CCCCOP(=O)(c1ccc(N(C)C)cc1)C(O)c1cccnc1 (stereo not drawn)	-0.6%
CCOc1ccccc1NC(=O)Cn1c(=O)n(-c2ccc(C)cc2)c(=O)c2c1cnn2C	-12.5%
O=C1COc2ccc(C(=O)CSc3nnc(Cc4cccs4)n3-c3ccccc3)cc2N1	-16.2%
FC(F)(F)c1cc(Cl)c2nc(-c3ccccc3)cn2c1	-0.4%
O=C(N/N=C/c1ccc(Cl)cc1)c1sccc1OCc1ccc(F)cc1	5.6%
O=C(NCC1COc2ccccc2O1)c1cc(S(=O)(=O)N2CCOCC2)c(Cl)cc1Cl (stereo not drawn)	-0.4%
O=C(C(=O)N1CCN(C(=O)c2ccco2)CC1)c1c[nH]c2ccccc12	-11.4%
COc1ccc(C(=O)OCC(=O)N(C)C2CCS(=O)(=O)C2)cc1S(=O)(=O)N1CCCc2ccccc21 (stereo not drawn)	4.0%
CCC1CCCCN1C1Sc2ccc(C(=O)OC)cc2NC1=O (stereo not drawn)	-3.5%
O=c1[nH]c2ccc(S(=O)(=O)N3CCCC3)cc2[nH]1	5.6%
CCCCNC(=O)CCn1c(=S)[nH]c2cc3c(cc2c1=O)OCO3	-3.3%

Screening results from PubChem.

A portion of the library; count on the stated rates, not on these rows.
